Compound activity from PubChem.
Arbovirus anti: antivirals against arbovirus infection; arbovirus infection cell-based antiviral screen; inhibition, % at 10 µM; AID 1251; 0.37% of 200,000 active;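 active means inhibition from about 30%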;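 further: bluetongue infection of BSR cells; cell survival read as ATP light after 72 h; 0% = infected wells without compound and 100% = uninfected wells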
Mtb bLac sens: beta-lactam sensitization of Mtb H37Rv. inhibition, % at 25 µM. AID 434955. 0.27% of 330,000 active. M. tuberculosis H37Rv growth with meropenem, percent inhibition; hits of this screen are not shown here;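 active means about 74% or more and at least 40 points above the plate without the antibiotic, then above 30% in a dose series; inconclusive means first-round hits that could not be retested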;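 further: growth measured after seven days incubation then overnight dye step; 0% = bacteria only wells and 100% = bacteria with antibiotic; twin plates without the antibiotic show which effects depend on it; some results filed as inactive read as strong as hits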
YopH PTP inh: blocks Yersinia enterocolitica YopH tyrosine phosphatase. fluorescence Ex485/Em525. inhibition, %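 (about 10 µM by stock and volumes)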. 0.16% of 140,000 active. AID 898;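 active means inhibition of 50% or more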;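 further: controls were vehicle for no effect and minimum signal wells for full effect; inactives centre near -20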
RecA intein inh: inhibitors of M. tuberculosis RecA intein splicing; P9WHJ3; cell-free RecA intein splicing, fluorescence; inhibition, %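 (about 9 µM by stock and volumes)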; 0.75% of 290,000 active; AID 2221; in the data active means inhibition above about 30%; inconclusive means no clear call, values can overlap the other calls;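 further: 0% = vehicle wells and 100% = reference inhibitor control wells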
Target sequence (P9WHJ3 whole entry, looked up): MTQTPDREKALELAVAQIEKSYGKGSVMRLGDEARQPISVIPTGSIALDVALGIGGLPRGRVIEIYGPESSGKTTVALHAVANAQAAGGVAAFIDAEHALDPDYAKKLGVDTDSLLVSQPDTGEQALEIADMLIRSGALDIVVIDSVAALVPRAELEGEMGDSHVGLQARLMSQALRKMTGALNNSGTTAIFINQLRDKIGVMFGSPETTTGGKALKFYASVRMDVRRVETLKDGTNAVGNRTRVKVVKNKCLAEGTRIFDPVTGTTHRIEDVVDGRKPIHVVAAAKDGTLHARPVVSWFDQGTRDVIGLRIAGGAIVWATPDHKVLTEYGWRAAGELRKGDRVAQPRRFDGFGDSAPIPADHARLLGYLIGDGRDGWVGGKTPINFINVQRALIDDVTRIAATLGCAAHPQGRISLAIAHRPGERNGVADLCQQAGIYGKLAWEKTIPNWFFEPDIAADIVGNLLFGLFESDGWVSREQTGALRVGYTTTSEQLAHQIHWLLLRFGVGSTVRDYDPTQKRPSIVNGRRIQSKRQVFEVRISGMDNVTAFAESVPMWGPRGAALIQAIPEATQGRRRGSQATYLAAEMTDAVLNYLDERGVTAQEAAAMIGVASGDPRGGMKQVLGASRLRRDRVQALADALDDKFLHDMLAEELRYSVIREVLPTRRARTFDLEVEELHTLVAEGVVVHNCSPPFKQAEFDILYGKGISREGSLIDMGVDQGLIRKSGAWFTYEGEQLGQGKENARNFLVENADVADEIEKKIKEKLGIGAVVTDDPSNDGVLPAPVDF
Mtb growth: M. tuberculosis H37Rv growth inhibitors, H37Rv strain (AID 1626); inhibition, % at 10 µM; hits with a dose series show IC50 in µM; M. tuberculosis H37Rv growth inhibition; higher % means a stronger effect; 0.95% of 220,000 active;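 active means confirmed in a dose series; inconclusive means inhibition above 80% but not taken into the dose series; inactive means below 80% or under 30% at every dose of the series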;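 further: bacteria incubated seven days before Alamar blue readout; 0% = bacteria only wells and 100% = bacteria with antibiotic wells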
Starred values were filed as active, the others as inactive; ? = inconclusive; . = no result given; & = joins results of further samples. Only part of the results is shown, so the mix of outcomes need not match the whole.

SMILES | Arbovirus anti | Mtb bLac sens | YopH PTP inh | RecA intein inh | Mtb growth
Cc1ccc(SC(c2ccccc2)C(Cn2cncn2)C(=O)c2ccccc2)cc1 (centres undefined) | 0 | -1 | 20 | 2.4 | 11%
Cn1ncc(Cl)c1C(=O)Nc1cccnc1 | 5 | -4 | -39 | -3.2 | -12%
Cc1cc(/C=C(\C#N)C(=O)O)c(C)n1CC1CCCO1 (centres undefined) | -6 | 4 | . | 1.4 | 3%
CC(C)CC(=O)Nc1ccc(C(=O)COC(=O)C2=COCCO2)cc1 | . | 59 | . | -1.0 | .
O=C(c1ccc(F)cc1)C1CCN(C(=O)Nc2ccccc2Cl)CC1 | 0 | -4 | . | 1.4 | 0%
Cc1nc2cc(C(F)(F)F)ccc2n1C1CCN(C(=O)N2CCOCC2)CC1 | 6 | 2 | -41 | -3.6 | -5%
Cc1ccc(C(=O)Nc2ccc3cn[nH]c3c2)cc1S(=O)(=O)N1CCCCC1 | -17 | -3 | -16 | 3.6 | -2%
CCCCN(C(=O)CSc1cc(C)c2ccccc2n1)c1c(N)n(Cc2ccccc2)c(=O)[nH]c1=O | 19 | 4 | -18 | 1.1 | 9%
Cn1c(CO)cnc1-c1ccccc1 | . | -3 | . | -1.9 | 4%
O=S1(=O)CC2SC(=S)N(Cc3ccccc3)C2C1 (centres undefined) | . | -3 | . | . | -9%

Sorted by SMILES length (highest first): 3 of the compounds above
SMILES | Arbovirus anti | Mtb bLac sens | YopH PTP inh | RecA intein inh | Mtb growth
Cc1ccc(SC(c2ccccc2)C(Cn2cncn2)C(=O)c2ccccc2)cc1 (centres undefined) | 0 | -1 | 20 | 2.4 | 11%
CC(C)CC(=O)Nc1ccc(C(=O)COC(=O)C2=COCCO2)cc1 | . | 59 | . | -1.0 | .
Cn1ncc(Cl)c1C(=O)Nc1cccnc1 | 5 | -4 | -39 | -3.2 | -12%

The list continues.
SMILES | Arbovirus anti | Mtb bLac sens | YopH PTP inh | RecA intein inh | Mtb growth
CCOC(=O)c1ccc(NC(=O)CN(C)S(=O)(=O)c2ccc(Br)s2)cc1 | 7 | 89 | -10 | 0.4 | ?
Cc1nc2ccc(CCO)cc2s1 | -3 | -7 | -22 | 2.0 | -12%
O=C(NCCN1CCOCC1)[C@H](Cc1ccccc1)N1C(=O)c2ccccc2C1=O | 5 | -6 | -39 | -0.1 | 4%
CCCNC(=O)c1ccccc1C(=O)NC1(C(=O)NCCC)CCCC1 | . | -4 | . | -0.2 | -7%
CSc1ncnc2sc(C)c(C)c12 | 1 | -1 | . | 1.4 | 3%
COc1ccc(CCNC(=O)c2c(O)c3ccccc3[nH]c2=O)cc1 | . | 6 | . | 0.7 | .
Cc1cc(NC(=O)CSCC(=O)N(C)Cc2ccc(F)cc2)no1 | . | -31 | . | -2.2 | .
CCc1ccc2oc(-c3cccc(NC(=O)c4cccnc4)c3)nc2c1 | 5 | 95 | -46 | 5.2 | 37%
COc1cccc(OC)c1C(=O)Nc1cccc2c1CCCC2 | . | 1 | . | 0.6 | .
Cc1ccc(C(=O)N/N=c2\sc3ccccc3n2C)cc1 | -24 | 57 | -6 | 0.6 | ?
COc1cc(C(=O)Nc2nnc(C)s2)c([N+](=O)[O-])cc1OC | . | -1 | . | -0.4 | -8%
COc1ccc(CCN(C(=O)c2ccccc2)C2=CC3CCC(C2)N3C)cc1OC (centres undefined) | 7 | . | -25 | -7.2 | -1%
COc1ccccc1C(=O)COC(=O)Cn1[nH]c(=O)c2ccccc2c1=O | . | 0 | . | 1.1 | .
O=C(CCn1cccn1)N1CCCC(N2CCN(c3cccc(Cl)c3)CC2)C1 (centres undefined) | . | -3 | . | 0.3 | .
O=C1C2CCCN2C(c2ccccc2F)N1c1ccc(Cl)cc1 (centres undefined) | 8 | ? | -34 | 1.0 | -10%
Cc1noc(C)c1C(=O)Nc1cccnc1 | 2 | -16 | 6 | -1.0 | -4%
O=C1CC(c2ccccc2)CC(O)=C1C=NCc1ccncc1 (centres undefined) | 7 | -1 | . | -1.7 | -2%
CCOc1ccc(S(=O)(=O)N2CCCCC2)cc1NC(=O)Cc1cccs1 | . | 3 | . | 0.3 | .
CCOC(=O)c1nn(-c2ccc(C)cc2)c(=O)cc1OCC(=O)Nc1cc(C)ccc1OC | . | -4 | . | -1.1 | .
COc1ccc(CN2C(=O)C3C4C=CC(C4)C3C2=O)cc1 (centres undefined) | -4 | 11 | -50 | 2.4 | -7%
C/C(CC(C)C)=N\NS(=O)(=O)c1ccc(C)c([N+](=O)[O-])c1 | . | 1 | . | -2.8 | 3%
COc1ccc(S(=O)(=O)N2CCCC(C(=O)O)C2)cc1 (centres undefined) | 13 | -8 | -23 | -3.0 | .
O=C(NCCO)/C(=C\c1cccc([N+](=O)[O-])c1)NC(=O)c1ccco1 | 2 | 1 | -42 | 1.1 | -3%
Nc1ccc(C(=O)O)cc1 | . | 4&0&-1 | . | 3.6&1.5&8.2 | -18%
CC(=O)Nc1ccccc1NC(=O)C/C(C)=N/NC(=O)c1ccc([N+](=O)[O-])c(Cl)c1 | 1 | -2 | 0 | -2.4 | -7%
Cc1cc(C)c(NC(=O)CSc2nccn2C)c(C)c1 | -5 | 4 | -13 | -0.1 | -2%
CCCN(CCC)S(=O)(=O)c1ccc(NC(=O)Cc2cccs2)cc1 | 0 | 30 | -6 | . | 4%
Cc1ccsc1C(=O)NC1CCCN(Cc2ccc(Cl)cc2)C1 (centres undefined) | . | 9 | . | 2.1 | .
O=C(c1ccc(F)cc1)c1ccc(N2CCCC2)cc1 | -4 | 69 | -19 | 1.1 | 5%
COC(=O)C1(C)NC(c2ccco2)C2C(=O)N(c3ccc(F)cc3)C(=O)C21 (centres undefined) | 0 | 1 | . | -2.1 | 0%
C#Cc1ccc(CN2CCN(Cc3ccsc3)C(CCO)C2)cc1 (centres undefined) | -14 | -6 | . | -1.5 | -2%
CCCCCCCCNC(=O)c1cnccn1 | 2 | 4 | -18 | -2.7 | 20%
CCN(CC)/C(Sc1ccccc1)=C(\C(Cl)=C(Cl)Cl)[N+](=O)[O-] | 12 | 4 | . | 7.1 | -8%
CCc1ncc(C)nc1CC | . | -11 | . | . | 1%
Cc1cccc(C(=O)Oc2ccc3ccc(O)cc3c2)c1 | . | 89 | . | 1.5 | .
COc1ccccc1N1CCN(S(=O)(=O)c2cccc3nsnc23)CC1 | 4 | -1 | 11 | 3.4 | -3%
CCn1c(C)nc2cc(N)ccc21 | . | -8 | . | -3.7 | 4%
COC(=O)N/N=C/c1ccc(OS(=O)(=O)c2ccc(C)cc2)c(OC)c1 | -6 | -4 | . | 5.2 | 2%
Nc1cnnc(N/N=C\c2ccccc2)c1Cl | . | 3 | . | 3.7 | .
O=C(COC(=O)c1ccc(-c2cnc3ccccc3n2)cc1)c1ccccc1 | -2 | 10 | -25 | 3.6 | 0%

Arranged by heavy-atom count (low to high): some entries from above
SMILES | Arbovirus anti | Mtb bLac sens | YopH PTP inh | RecA intein inh | Mtb growth
Nc1ccc(C(=O)O)cc1 | . | 4&0&-1 | . | 3.6&1.5&8.2 | -18%
CCc1ncc(C)nc1CC | . | -11 | . | . | 1%
CCn1c(C)nc2cc(N)ccc21 | . | -8 | . | -3.7 | 4%
Nc1cnnc(N/N=C\c2ccccc2)c1Cl | . | 3 | . | 3.7 | .
COc1ccc(S(=O)(=O)N2CCCC(C(=O)O)C2)cc1 (centres undefined) | 13 | -8 | -23 | -3.0 | .
Cc1cccc(C(=O)Oc2ccc3ccc(O)cc3c2)c1 | . | 89 | . | 1.5 | .
CCN(CC)/C(Sc1ccccc1)=C(\C(Cl)=C(Cl)Cl)[N+](=O)[O-] | 12 | 4 | . | 7.1 | -8%
Cc1ccsc1C(=O)NC1CCCN(Cc2ccc(Cl)cc2)C1 (centres undefined) | . | 9 | . | 2.1 | .
C#Cc1ccc(CN2CCN(Cc3ccsc3)C(CCO)C2)cc1 (centres undefined) | -14 | -6 | . | -1.5 | -2%
CCCN(CCC)S(=O)(=O)c1ccc(NC(=O)Cc2cccs2)cc1 | 0 | 30 | -6 | . | 4%
COc1ccccc1N1CCN(S(=O)(=O)c2cccc3nsnc23)CC1 | 4 | -1 | 11 | 3.4 | -3%
COC(=O)C1(C)NC(c2ccco2)C2C(=O)N(c3ccc(F)cc3)C(=O)C21 (centres undefined) | 0 | 1 | . | -2.1 | 0%
O=C(COC(=O)c1ccc(-c2cnc3ccccc3n2)cc1)c1ccccc1 | -2 | 10 | -25 | 3.6 | 0%
CC(=O)Nc1ccccc1NC(=O)C/C(C)=N/NC(=O)c1ccc([N+](=O)[O-])c(Cl)c1 | 1 | -2 | 0 | -2.4 | -7%

The list goes on.
SMILES | Arbovirus anti | Mtb bLac sens | YopH PTP inh | RecA intein inh | Mtb growth
COc1ccc(NC(=O)C(=O)c2cn(CC(=O)N3CCCC3)c3ccccc23)cc1OC | . | -2 | . | -1.6 | .
O=c1c2c(nc3c(-c4ccc(Cl)cc4)c[nH]n13)CCC2 | -23 | ? | . | 1.0 | 13µM*
CN1C2CCC1C(COC(=O)c1ccccc1)C(O)C2 (centres undefined) | . | -9 | . | 7.0 | -6%
COc1ccccc1NS(=O)(=O)c1ccc(C(N)=O)cc1 | 1 | 8 | . | -1.3 | 0%
O=C(/C(=C/O)N=Nc1cccc(C(F)(F)F)c1)c1ccccc1 | -11 | 71 | . | . | 77%
Cc1ccc(C(=O)Nc2nnn(C)n2)cc1 | 4 | -4 | -22 | 0.7 | -6%
COc1ccc(CC(=O)N/N=C(/C)c2ccco2)cc1 | -6 | 4 | . | 2.6 | -5%
Clc1ccccc1-c1nnc2n1CCCCC2 | . | -1 | . | 0.6 | -10%
COC(=O)c1ccc(CSc2nc3scc(-c4cccs4)c3c(=O)[nH]2)o1 | -1 | 8 | -37 | -0.6 | -9%
COc1ccc(C(=O)COC(=O)c2ccc(NC(=O)c3ccccc3)cc2)cc1 | -2 | 9 | -5 | -1.4 | 33%
CCN(CC)CCCNC(=O)c1oc2ccc(S(=O)(=O)N3CC(C)CC(C)C3)cc2c1C (centres undefined) | . | -4 | . | 0.6 | .
CN1CCN(CC(=O)Nc2c(C(=O)C3CC3)oc3ccccc23)CC1 | 2 | ? | -10 | -0.2 | 0%
Cc1ccc(-c2cc(C(=O)N3CCCC(C(F)(F)F)C3)c3ccccc3n2)o1 (centres undefined) | . | -5 | . | -4.0 | .
Cc1nc(SCc2c(F)cccc2Cl)c2c(=O)n(C)c(=O)n(C)c2n1 | 15 | 2 | -63 | 0.5 | -4%
CCOc1ccccc1N(CC(=O)N1CCC(C(N)=O)CC1)S(=O)(=O)c1ccc(SC)cc1 | . | 0 | . | -1.6 | .
CCOCCCNCc1cn(-c2ccc(F)cc2F)nc1-c1ccccc1C | 7 | -3 | . | 0.3 | -4%
O=c1[nH]c(-c2ccccc2)cs1 | -7 | -6 | -50 | 1.6 | -1%
Cc1nnc(SCc2cc(=O)oc3ccc4ccccc4c23)n1Cc1ccccc1 | 7 | -5 | -10 | -23 | 1%
Cc1ccc(S(=O)(=O)NCCC(=O)Nc2ccncc2)cc1C | . | -5 | . | -0.5 | .
COc1ccc(S(=O)(=O)N(CC(=O)O)c2ccc(C)cc2)cc1 | 3 | -3 | -44 | 1.1 | -8%
O=C1CC(N2CCC(c3nc4ccccc4o3)CC2)C(=O)N1c1cc(Cl)cc(Cl)c1 (centres undefined) | 12 | 6 | 0 | 8.2 | -7%
O=C(CSc1nc2ccc(N3CCOCC3)cc2c(=O)n1CCc1ccccc1)NCC1CCCO1 (centres undefined) | 3 | 4 | . | 2.9 | 0%
